# Screening data as filed in PubChem BioAssay.
# Calb FLC – affects C. albicans growth with fluconazole; C. albicans CaCi-2 (fluconazole-resistant clinical isolate) + fluconazole, Alamar Blue growth, 48 h; growth inhibition, % (no concentration beside the values); actives 0.57% (n = 300,000);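 active = most replicates above 75%; inconclusive = exactly half above 75%; inactive = most below 75%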;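 also: all wells also contain fluconazole at 8 µg/ml as a sub-toxic cotreatment; 0% = median of DMSO wells and 100% = median of geldanamycin control wells; wells of about 8 µL received 7.5 nL stock; the first replicate is given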
# Ecoli rRNA inh – inhibits bacterial ribosomal RNA function over humanized ribosomes | E. coli WT GFP vs humanized-ribosome RFP mutants, fluorescence, 24 h; stronger effect = lower value; DMSO median 0, no signal -100 | GFP signal change (wild-type ribosome), % (test concentration not listed) | actives 1.6% (n = 350,000) | AID 720706;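 active = significant combined selectivity score with lowered wild-type GFP, culture density cut under 30%, mutant RFP and density less affected; inactive = any of these conditions unmet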; also: one replicate is shown; some compounds called inactive have numbers as strong as hits
# T cruzi inh – blocks replication of Trypanosoma cruzi; T. cruzi beta-gal in NIH3T3, luminescence, 90 h; inhibition, % (no concentration beside the values); actives 1.4% (n = 300,000);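 active = mean inhibition across valid replicates above about 55%, limit read from the data; inconclusive = mean below that limit but half or more replicates reach it; inactive = mean below it, under half of replicates reach it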;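 also: signal also drops with host cell toxicity which is not excluded here; 0% = plate median of DMSO wells and 100% = zero luminescence signal; higher percent means less beta-gal luminescence so fewer parasites; stock transfer was 50 nL into about 50 µL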
# A1 inh – inhibitors of the anti-apoptotic protein A1, read as caspase activation; actives 0.066% (n = 330,000); AID 2462; MEF A1-2A-BIM cells, Caspase-Glo 3/7 luminescence, 3 h; percent of clofoctol response, vehicle zero; caspase activation, % (no concentration beside the values);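 active = over half of replicate activation scores above 10%, or exactly half above 10 with the replicate mean above 10; inconclusive = replicate mean below 10 yet half the replicates above 10; inactive = over half of replicates below 10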;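 also: wells of about 30 µL received 50 nL stock; many hits fall short of the cut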
# RanGTP-Imp inh – inhibitors of RanGTP-importin-beta interaction, primary screen, biochemical, FRET, CFP-Ran, YFP-importin-beta, homogeneous | cell-free CFP-Ran/YFP-importin-beta FRET ratio | inhibition, % (test concentration not listed) | actives 1.1% (n = 300,000);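 active = most replicates above 15%; inconclusive = exactly half above 15%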;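 also: 0% = DMSO wells and 100% = Ran loaded with GDP instead of GTP; wells of about 40 µL received 100 nL stock; the first replicate is given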
# Vif TR-FRET – inhibitors of Vif binding to APOBEC3G peptide, primary screen, biochemical, TR-FRET, GST-Vif 1-94, biotin-A3G peptide, dose response retest (AID 1117319); TR-FRET GST-Vif / biotin-A3G peptide binding; higher % means a stronger effect; test concentration not given here; strong numbers were not always called active; inhibition, %, or IC50 in µM where a hit was titrated; actives 0.57% (n = 260,000);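 active = above the screen mean plus three standard deviations and confirmed in dose response; inconclusive = results disagree or hit not tested in dose response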;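 also: Vif residues 1-94 fused to GST binding biotinylated APOBEC3G peptide 110-148; 0% = full assay without inhibitor and 100% = GST in place of GST-Vif; retest series ran down from 100 µM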
# Beta apoptosis – beta cell apoptosis inhibition; INS-1E cytokine-induced death, ATP luminescence, 48 h; percent of positive-control rescue, neutral wells zero; protection from apoptosis, % (concentration not given with the values); actives 0.8% (n = 300,000); AID 435005;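 active = all replicates at 75% or more, or half of them and the mean; inconclusive = half reach 75% but not the mean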;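 also: 0% = cytokine-treated negative control wells and 100% = positive control rescue; higher means more ATP so stronger rescue from cytokine killing; wells of about 40 µL received 100 nL stock; the first replicate is given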
# AF4-AF9 inh – MLL-AF4/AF9 protein interaction inhibition. P42568. AID 651704. AlphaScreen, biotin-AF4 peptide binding to FLAG-AF9. inhibition, % at 10 µM. actives 0.47% (n = 350,000);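 active = every replicate reaching a set inhibition limit, whatever the replicate mean, cut at about 25% in these data; inconclusive = mean inhibition reaches that limit but some replicates miss it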;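 also: 0% = plate neutral control median and 100% = total signal loss; the record names both 10 and 1 µM as test concentration; the first replicate is given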
# Target sequence (P42568 whole entry, looked up): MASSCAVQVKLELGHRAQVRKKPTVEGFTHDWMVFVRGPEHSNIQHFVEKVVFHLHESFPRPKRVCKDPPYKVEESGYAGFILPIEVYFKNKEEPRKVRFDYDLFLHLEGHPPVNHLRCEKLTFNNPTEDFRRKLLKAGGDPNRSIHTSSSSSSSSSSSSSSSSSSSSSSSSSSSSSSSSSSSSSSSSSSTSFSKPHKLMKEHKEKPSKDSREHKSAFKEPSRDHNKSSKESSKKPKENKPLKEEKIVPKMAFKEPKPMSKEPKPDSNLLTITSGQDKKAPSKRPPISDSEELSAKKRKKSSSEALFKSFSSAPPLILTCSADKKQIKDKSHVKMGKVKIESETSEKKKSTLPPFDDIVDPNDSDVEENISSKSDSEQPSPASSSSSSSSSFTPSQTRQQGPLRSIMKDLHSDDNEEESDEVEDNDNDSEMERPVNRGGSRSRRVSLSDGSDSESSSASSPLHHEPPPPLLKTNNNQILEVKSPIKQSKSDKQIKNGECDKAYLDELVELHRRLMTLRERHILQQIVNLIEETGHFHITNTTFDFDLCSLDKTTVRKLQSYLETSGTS
# Ecoli rRNA inh OD600 – also measured in Ecoli rRNA inh; calls as there; OD600 change, %; measured here: OD600 growth;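 optical density of the mix in the first replicate; 0 = DMSO median and -100 = no signal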
# Ecoli rRNA inh RFP – recorded beside Ecoli rRNA inh, whose call it bears; RFP signal change, %; measured here: RFP humanized mutant strains;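 first replicate; 0 = DMSO median and -100 = no signal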
# The depositor's hits bear a star; ? = inconclusive; · = no result given; & = joins results of further samples.
SMILES,Calb FLC,Ecoli rRNA inh,Ecoli rRNA inh OD600,Ecoli rRNA inh RFP,T cruzi inh,A1 inh,RanGTP-Imp inh,Vif TR-FRET,Beta apoptosis,AF4-AF9 inh
O=C(O)c1ccc2c(c1)C(=O)N(c1ccc(Nc3ccccc3)cc1)C2=O,1,-15,-16,-1.5,-13,0.3,-2.3,5%,-8,-3.9
O=C(NC(Cc1ccccc1)C(=O)O)/C(=C\c1ccco1)NC(=O)c1ccccc1Br (stereo unspecified),-7,·,·,·,-19,0.0,-0.2,·,4,·
CC1(c2ccccc2)NC(=O)N(CC(=O)Nc2ccccc2N2CCCCC2)C1=O (stereo unspecified),0,-14,-28,-3.5,-1,0.0,0.4,-2%,9,-37
CCC(=O)NN1CCc2cc3ccc(C)cc3nc21,0,8,12,-2.3,-12,-0.1,-3.5,-1%,-6,-3.2
COc1ccc(C(=O)NCCC(=O)NCc2cc(=O)n(C)c(=O)n2C)cc1,13,-3,9,-0.9,0,-0.3,1.8,·,-4,-0.1
CCOC(=O)c1cc(-c2ccccc2)sc1NC(=O)CSc1nnnn1C,4,·,·,·,-9,0.4,·,2%,-3,·
Cc1noc(C)c1S(=O)(=O)N(CC(=O)NC1CCC(C)CC1)c1ccc(C(C)C)cc1 (stereo unspecified),-2,2,5,-0.2,39,-0.2,-5.2,9%,6,-0.3
Cn1c(N)c(C(=O)COC(=O)c2ccc(C(F)(F)F)cc2)c(=O)n(C)c1=O,·,-6,7,-2.2,·,0.9,·,-16%,-4,1.7
Cc1cc(C)nc(SCC(=O)Nc2cc(C)on2)n1,0,·,·,·,-12,0.2,2.0,-4%,-1,·
CN(C)S(=O)(=O)c1ccc(Cl)c(NC(=O)COC(=O)C2CSC3(C)CCC(=O)N23)c1 (stereo unspecified),-3,·,·,·,-8,-1.7,0.5,·,-10,·
CCn1c(-c2csc(-c3ccc(Cl)cc3)n2)n[nH]c1=S,-3,·,·,·,1,1.1,?,70%,0,·
Cc1c(NC(=O)CN2C(=O)NC3(CCC(C)CC3)C2=O)c(=O)n(-c2ccccc2)n1C (stereo unspecified),-1,10,6,-5.4,-10,0.2,-1.6,·,-7,-0.6
CCOC(=O)N1CCN(S(=O)(=O)c2ccc(OC)c(Br)c2)CC1,-3,-9,-15,-0.5,2,0.0,-0.8,·,·,-1.8
COc1ccccc1CSc1nc2ccccc2[nH]1,-3,-12,-9,-0.2,25,-0.6,2.1,-2%,-5,8.4
CC1(C)Cc2c(c(-c3ccco3)nc3sc4c(NCCCO)ncnc4c23)CO1,16,12,7,7.6,20,0.4,0.7,·,-9,-2.2
COc1ccc(N/C=C/C(=O)c2cc(OC)c(OC)c(OC)c2)cc1,-14,22,21,1.7,-53,-0.1,-1.1,·,31,6.2
CCN(CC)C(=O)C1CCCN(C(=O)Nc2ccccc2)C1 (stereo unspecified),-15,·,·,·,-4,0.2,-1.2,0%,-12,·
O=C(Cn1cccc1C(=O)c1ccccc1)NCCc1ccccc1,-1,16,10,1.6,-10,2.2,0.0,-6%,-3,-2.1
COc1ccc(NC(=O)C2CCN(S(=O)(=O)c3ccc(OC)c(OC)c3)CC2)c(OC)c1,2,·,·,·,3,0.1,-1.3,16%&3%,·,·
S=C(c1c[nH]c2ccc(Br)cc12)N1CCOCC1,-9,-3,-6,0.4,4,0.7,-1.2,1%,-3,9.8
CC(=O)c1ccc(NC2=C(N3CCOCC3)C(=O)c3ccccc3C2=O)cc1,15,·,·,·,-34,-0.2,-1.3,7%,-2,·
CCc1ccccc1N1C(=O)C2CC(C)=C(C)CC2C1=O (stereo unspecified),5,·,·,·,-4,-0.3,0.2,24%,-14,·
Cc1ccc(S(=O)(=O)CCSc2cccc(C(=O)Nc3ccccc3C(=O)O)c2)cc1,8,·,·,·,2,-6.6,4.9,?,·,·
COc1ccc(C)cc1NC(=O)c1ccc(N(C)S(C)(=O)=O)cc1,2,2,1,-2.2,3,-0.6,-1.9,-6%,-1,·
COc1cc(/C=C/C(=O)O)cc(S(=O)(=O)Nc2ccc3c(c2)CCC3)c1OC,-1,1,-8,-2.8,-21,0.2,1.5,·,-4,-6.3
O=C(Nc1ccccc1-c1ccccc1)C1CCCC1,-12,-23,-20,-11,-8,-0.3,-2.2,-6%,-2,-1.8
COc1cc2[nH]c(C(=O)N(C)C3CCS(=O)(=O)C3)cc2c(OC)c1OC (stereo unspecified),10,0,7,-1.1,-14,1.2,-0.9,·,-1,-1.6
O=C(Oc1csc(=S)n1C(=O)c1ccccc1)c1ccccc1,·,·,·,·,-3,-0.2,-2.7,6%,-1,·
O=C(COC(=O)c1cc[n+]([O-])cc1)Nc1ccc(Br)cc1,·,-3,5,-0.5,·,0.2,·,·,4,-0.4
COC(=O)CCc1c(C)c(C(=O)c2cccc(OC)c2OC)c2ccccn12,-2,-5,-7,0.5,16,0.0,-0.6,-6%,-4,3.8
C[C@H](Nc1ccc(C(F)(F)F)cc1[N+](=O)[O-])C(=O)O,10,11,6,4.8,23,1.6,-5.6,·,-3,2.1
COC(=O)c1sc(NC(=O)COc2ccccc2)nc1C,-11,·,·,·,-4,-0.7,-1.0,-1%,-2,·
Cc1cc2c(cc1C)NC(=O)CC(C(F)(F)C(F)(F)C(F)(F)F)=N2,0,·,·,·,-16,-0.5,5.6,-6%,-2,·
C=C1CCN([C@@H](CC(C)C)C(=O)NN2CCOCC2)S(=O)(=O)c2ccccc21,3,11,10,1.0,3,0.6,-3.4,·,·,1.2
CCCOc1ccc(OCCSc2nnc(N)s2)cc1,10,·,·,·,20,-3.1,2.2,4%,1,·
CCOC(=O)C1=C(CSc2nc(-c3ccccc3)ccc2C#N)OC(N)=C(C#N)C1c1ccccc1 (stereo unspecified),9,·,·,·,16,-0.1,3.6,19%,-9,·
O=C(Nc1ccc2ccccc2n1)Nc1cccs1,-11,2,0,-1.7,-2,-0.3,-0.1,3%,-9,-2.5
CCOc1ccc(-c2cc(C(=O)NCCCN3CCN(CC)CC3)c3ccccc3n2)cc1,1,·,·,·,41,0.3,?,-4%,5,·
CC(C)(C)CN1C(N)=NC[C@@H]1Cc1ccccc1,-6,10,28,12,-7,0.3,-6.4,·,-8,-18
S=C1NCN(Cc2cccnc2)CN1c1cccc(Cl)c1,-23,·,·,·,·,-0.3,-2.4,4%,-13,-1.6

# Entries shown so far with a thiophene ring, fused or not:
SMILES,Calb FLC,Ecoli rRNA inh,Ecoli rRNA inh OD600,Ecoli rRNA inh RFP,T cruzi inh,A1 inh,RanGTP-Imp inh,Vif TR-FRET,Beta apoptosis,AF4-AF9 inh
CCOC(=O)c1cc(-c2ccccc2)sc1NC(=O)CSc1nnnn1C,4,·,·,·,-9,0.4,·,2%,-3,·
CC1(C)Cc2c(c(-c3ccco3)nc3sc4c(NCCCO)ncnc4c23)CO1,16,12,7,7.6,20,0.4,0.7,·,-9,-2.2
O=C(Nc1ccc2ccccc2n1)Nc1cccs1,-11,2,0,-1.7,-2,-0.3,-0.1,3%,-9,-2.5

# (continued)
SMILES,Calb FLC,Ecoli rRNA inh,Ecoli rRNA inh OD600,Ecoli rRNA inh RFP,T cruzi inh,A1 inh,RanGTP-Imp inh,Vif TR-FRET,Beta apoptosis,AF4-AF9 inh
CCOC(=O)c1ccc(-n2c(CN3CCN(CC)CC3)nc3ccc([N+](=O)[O-])cc3c2=O)cc1,8,-2,-1,-8.2,18,-1.2,1.5,17%,-3,7.9
CC(O)[C@H]1CNC(=O)C(=O)N1CC(C)(C)C (stereo partly specified),-7,15,10,-1.4,-4,-1.7,2.1,·,-5,-1.9
CN(CC(=O)Nc1c(Cl)cccc1Cl)C(=O)CCc1nc2sc3c(c2c(=O)[nH]1)CCCC3,1,2,4,0.2,-2,0.1,-3.7,-2%,-6,-18
CC1CN(Cc2nc3c(c(=O)[nH]c(=O)n3C)n2CCCc2ccccc2)CC(C)O1 (stereo unspecified),-1,10,-1,3.6,9,-0.2,-0.3,-4%,2,4.3
O=C(NC1CCCCC1)N1CCN(C(=O)c2ccco2)CC1,-7,-3,3,-10,-13,0.8,4.1,9%,-2,6.5
CCOC(=O)c1ccc(NC(=O)c2n[nH]c(=O)c3ccccc23)cc1,5,6,4,-0.7,-4,-3.6,?,-9%,-10,0.9
COc1cc(NC(=O)CSc2nc(=O)n(CCN3CCOCC3)c3c2CCCC3)cc(OC)c1,8,2,-8,-0.6,2,0.1,-1.0,1%,-1,-5.1
CC(C)CN(C(=O)C(C)N1C(=O)c2ccccc2C1=O)c1c(N)n(Cc2ccccc2)c(=O)[nH]c1=O (stereo unspecified),3,6,14,-1.9,3,0.6,2.2,3%,·,-3.3
CCN(CC)C(=O)c1cc2c(=O)c3cc(Cl)ccc3oc2nc1C,1,9,6,-0.2,14,-0.4,-1.9,-7%,1,0.3
O=C(Nc1ccc2ccccc2c1)c1cccc(F)c1,·,14,4,-4.9,-6,-3.2,6.2,4%&-6%,7,1.9
O=C(NNc1ccc(F)cc1)c1c(F)cccc1Cl,-3,-2,-10,-2.4,11,0.1,0.4,-2%,-3,-1.6
CCOC(=O)c1cccc(NC(=O)CSc2nnc(COc3ccccc3)n2CC)c1,6,·,·,·,-3,-1.1,0.5,0%,-7,·
COc1ccc(N2CCN(c3nc(=S)n(-c4ccccc4)c(C)c3C(C)=O)CC2)cc1,10,-1,18,9.5,-10,0.1,92*,24%,-26,·
COc1ccc(Br)cc1/C=N/NC(=O)Cn1nnnc1N,3,9,7,-2.0,-17,0.3,-1.0,5%,-3,-1.3
COc1ccc(S(=O)(=O)N2CCN(C(=O)C3CCCO3)CC2)cc1 (stereo unspecified),2,4,4,-0.6,-5,1.9,-4.4,·,-3,-1.9
COc1ccccc1C(=O)NNC(=O)c1cccc(O)c1,-4,-7,-3,-6.8,-8,1.6,-2.6,·,4,2.9
COc1ccc(N(CC(=O)N/N=C/c2ccc(C(=O)O)cc2)S(=O)(=O)c2ccc(NC(C)=O)cc2)cc1,2,10,-4,0.8,17,-0.3,3.2,-7%,-7,-13
CC(Sc1n[nH]c(-c2cccs2)n1)C(=O)N1CCCC1 (stereo unspecified),·,4,3,0.4,·,-1.8,·,-6%,-8,-3.9

# The list is partial; rates above refer to the full screens.
